# Screening data: PubChem BioAssay, several laboratories
# CSC inhib – cancer stem cell inhibition; cancer stem cell-like cells viability, luminescence; inhibition, % at 7.5 µM; actives 1.1% (n = 300,000);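 active means mean at 75% or more and at least half the replicates too; tested in HMLE shEcad cells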;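 further: 0% = median of negative and 100% = median of positive control wells; the first replicate is given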
# Env fusion inh – HIV envelope-mediated fusion inhibition. AID 651610. inhibition, % at 12.3 µM. actives 1.1% (n = 360,000). HeLa-JRFL Env/CEM21 cell fusion, luciferase;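 active means mean replicate inhibition score of at least 50 and every replicate individually at or above 50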;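 further: 0% = plate neutral controls and 100% = maraviroc near 300 nM; one replicate is shown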
# MT1-MMP act inh – inhibitors of human MT1-MMP activation; P50281; HT1080 RFP-PRO-GFP cells, GFP/RFP ratio fluorescence, overnight; percent of plate control window, DMSO zero; GFP/RFP ratio change, % at 20 µM; actives 0.061% (n = 360,000); AID 651647;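 active means GFP/RFP ratio change of at least 30% with cell ATP level not reduced by more than half and red fluorescence within 50% of control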; further: strong numbers were not always called active
#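 Material – HT1080 RFP-PRO-GFP cells · Control set – DMSO wells and RFP-L50D-GFP cells · Incubation – overnight cell settling, then overnight compound exposure, 37 °C, 5% CO2 · Compound dosing – single-point 20 µM compound, 1% DMSO · Read-out – GFP/RFP fluorescence ratio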
# eIF4H FP inh – inhibitors of RNA binding by human eIF4H; eIF4H fluorescence polarization binding assay; inhibition, % at 35 µM; actives 0.94% (n = 290,000);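 active means 50% or more with normal probe brightness, or confirmed in later tests; about a fifth of its hits are not listed in these tables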;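 further: calls also rest on retests at 20 µM and on dose response follow-up; 0% = protein and probe with vehicle and 100% = probe without protein; strong numbers were not always called active; many hits fall short of the cut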
# Rce1 inhib – yeast Ras-converting enzyme inhibition; actives 0.27% (n = 290,000); yeast membranes, quenched prenylated peptide cleavage fluorescence; calls only; AID 2563;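 active means fall in fluorescence gain of 50% or more versus controls, with final raw signal at or below 3038400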;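 further: plate controls were neutral control wells for no effect and wells lacking membranes for full effect; tested at 10 µM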
# Target sequence (Q03530 whole entry, looked up): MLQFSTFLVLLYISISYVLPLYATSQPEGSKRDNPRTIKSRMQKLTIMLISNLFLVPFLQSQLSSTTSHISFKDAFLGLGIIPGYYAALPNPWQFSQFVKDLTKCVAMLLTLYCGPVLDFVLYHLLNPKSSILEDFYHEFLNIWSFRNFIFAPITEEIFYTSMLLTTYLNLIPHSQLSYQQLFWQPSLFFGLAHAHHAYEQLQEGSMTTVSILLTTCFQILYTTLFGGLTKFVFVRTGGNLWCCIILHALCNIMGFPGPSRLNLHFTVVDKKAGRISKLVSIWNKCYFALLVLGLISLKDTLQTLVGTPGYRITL
# PABP FP inh – PABP-poly(A) binding inhibition; actives 1% (n = 290,000); inhibition, % at 35 µM; PABP-poly(A) RNA binding, fluorescence polarization;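 active means 50% or more with normal probe brightness, or confirmed in later tests; about a fifth of its hits are not listed in these tables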;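 further: calls also rest on retests at 20 µM and on dose response follow-up; controls were probe without protein and protein plus probe with vehicle; some compounds called inactive have numbers as strong as hits; many hits fall short of the cut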
# Target sequence (P11940 whole entry, looked up): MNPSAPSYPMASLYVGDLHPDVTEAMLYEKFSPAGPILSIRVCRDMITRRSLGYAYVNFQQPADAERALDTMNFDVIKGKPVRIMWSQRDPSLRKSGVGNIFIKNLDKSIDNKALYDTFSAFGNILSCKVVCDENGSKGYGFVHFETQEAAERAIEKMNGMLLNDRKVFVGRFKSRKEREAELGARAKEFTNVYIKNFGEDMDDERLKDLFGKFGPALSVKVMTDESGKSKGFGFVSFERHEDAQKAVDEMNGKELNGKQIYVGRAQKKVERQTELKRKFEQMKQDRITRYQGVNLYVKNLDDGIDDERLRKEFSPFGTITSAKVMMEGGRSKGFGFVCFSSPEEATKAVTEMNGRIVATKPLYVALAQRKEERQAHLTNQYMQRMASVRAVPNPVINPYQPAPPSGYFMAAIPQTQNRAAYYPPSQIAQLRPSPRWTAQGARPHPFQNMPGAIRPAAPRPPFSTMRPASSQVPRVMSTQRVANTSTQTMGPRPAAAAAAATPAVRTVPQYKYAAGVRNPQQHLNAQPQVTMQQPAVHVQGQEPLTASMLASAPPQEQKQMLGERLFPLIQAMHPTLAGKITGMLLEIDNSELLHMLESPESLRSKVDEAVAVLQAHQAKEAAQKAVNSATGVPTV
# Yeast UUG start – modulators of start codon recognition fidelity in yeast; actives 0.13% (n = 350,000); S. cerevisiae UUG-firefly luciferase reporter, luminescence/redox ratio; AID 602363; activity score, % at 18.7 µM;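 active means replicate mean at a twofold rise or more, about +100% in these data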;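 further: firefly luciferase made from a UUG start codon reports start codon fidelity; reporter light over untreated wells divided by growth signal over untreated wells; some hits fall short of that in this replicate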
# eIF4H FP inh retest – recorded beside eIF4H FP inh, whose call it bears; inhibition, %; compound at 20 µM; confirmation average;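 mean of two retest wells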
# PABP FP inh retest – further read-out of PABP FP inh, marked with its call; inhibition, %; compound at 20 µM; confirmation repeats;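 mean of two retest wells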
# MT1-MMP act inh RFP – further read-out of MT1-MMP act inh, marked with its call; RFP signal change, %; measured here: RFP expression control read;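 0 = vehicle wells; hits needed this value within 50% of zero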
# Numbers without * were called inactive; i = inactive; x = not tested or not shown; + = active, no number.
SMILES,CSC inhib,Env fusion inh,MT1-MMP act inh,MT1-MMP act inh RFP,eIF4H FP inh,Rce1 inhib,PABP FP inh,Yeast UUG start,others
Cc1c(C#N)c(=O)c(-[n+]2ccccc2)c([S-])n1-c1ccc(Cl)cc1,5.2,-2.3,2.5,-0.5,-0.3,i,2.0,4.5,
Oc1c(Cl)cc(Cl)cc1CNc1nccs1,7.8,-9.1,-16.4,-0.9,0.2,i,13.4,-2.6,
Cc1ccc(C)c(NC(=O)C2CCCN(c3cnccn3)C2)c1 (stereo unspecified),-21.8,1.9,-2.6,1.0,-8.1,i,-1.9,-36.4,
COc1cccc(NC(=O)C2CCCN2S(=O)(=O)c2ccc3c(c2)n(C)c(=O)c(=O)n3C)c1 (stereo unspecified),5.8,1.8,-1.1,6.4,-2.0,i,1.9,-15.1,
COC(=O)C1CCN(c2cc(=O)n(-c3ccccc3Cl)c(=O)[nH]2)CC1,-3.3,-32.1,-3.5,-2.1,2.2,x,-9.4,-9.9,
O=C(O)c1ccccc1SCc1nc2ccccn2c1Br,3.1,-4.9,-2.8,0.2,-2.9,i,17.8,-14.8,
COc1ccc([N+](=O)[O-])cc1NC(=O)C(C)OC(=O)c1ccccc1C(=O)c1ccc(Cl)cc1 (stereo unspecified),30.0,84.8*,-7.4,-6.8,25.9,i,-4.4,x,
O=C(NCc1ccc(F)cc1)c1cccnc1,x,3.6,1.3,3.0,12.1,i,4.6,-3.9,
O=C(O)Cc1c(C(=O)O)nnn1-c1ccc(Cl)cc1Cl,-3.8,38.2,2.4,8.6,-4.8,i,80.9,x,eIF4H FP inh retest=-11.9;PABP FP inh retest=9.7
C=CCOc1cccc(C2/C(=C(/O)c3ccc4c(c3)CC(C)O4)C(=O)C(=O)N2CCN2CCOCC2)c1 (stereo unspecified),1.6,-10.6,-3.6,2.1,0.4,i,2.0,-13.5,
CCC1(C(=O)O)NC(c2cc(OC)ccc2O)C2C(=O)N(Cc3ccccc3)C(=O)C21 (stereo unspecified),-7.1,-1.3,-2.4,-1.4,-4.9,i,-3.6,-11.4,
O=C1CSC(c2ccc(F)cc2)N1c1c(F)cccc1F (stereo unspecified),-6.4,-15.9,0.0,1.2,0.6,i,5.1,-18.7,
O=C(NCCc1ccccc1)C(=O)NCC1OCCN1S(=O)(=O)c1cc(F)ccc1F (stereo unspecified),-4.4,x,-8.2,-2.5,-10.8,i,6.1,-16.7,
Cc1ccc(NS(=O)(=O)c2ccc(OCC(=O)NCc3ccncc3)cc2)cc1,45.2,34.0,-5.2,-0.9,1.9,i,31.9,-9.9,
COc1ccc(N2C(=O)CC(n3c(CCCCO)nc4ccccc43)C2=O)cc1 (stereo unspecified),-15.4,x,-3.5,0.6,0.7,i,-6.6,-13.8,
CC(C)CC(NC(=O)c1ccccc1NC(=O)c1ccccc1)C(=O)O (stereo unspecified),-2.1,15.0,-2.5,3.0,-7.0,i,1.4,-27.7,
CCOC(=O)N1CCC(NC(=O)CCc2c(C)nc3ncnn3c2C)CC1,-11.4,23.7,1.0,1.3,1.3,i,2.7,-13.2,
Cc1cc(C)n(CCCNC(=O)c2ccc3c(c2)NC(=O)CS3)n1,x,x,-0.9,0.6,-4.8,i,3.0,-7.7,
CC(NC(=O)Cc1cccs1)c1ccccc1 (stereo unspecified),-6.0,-20.6,1.4,2.0,-6.4,i,-9.8,x,
COc1cc(CC(=O)Nc2ccccc2N2CCOCC2)cc(OC)c1OC,-12.3,-9.9,-3.6,-3.0,-5.8,i,2.6,x,
Cc1cccc(-c2oc3ccccc3c2-c2ccc3c(c2)OCO3)c1,4.0,x,2.2,2.4,1.2,+,-4.4,-13.7,
Cc1cc(C)cc(N(CCC#N)C(=O)COC(=O)C2=COCCO2)c1,x,1.7,-2.3,2.0,x,i,x,-17.2,
Cc1ccc(NC(=O)C(CC(C)C)NC(=O)C2CCC(C)CC2)nc1 (stereo unspecified),-7.6,-47.3,-10.4,-8.5,-0.2,i,0.7,x,
COc1ccc(-c2nnc(-c3ccc(OCC(C)C)cc3)o2)cc1,-9.1,-27.5,3.0,1.6,-10.6,i,3.0,-3.7,
O=C(Cc1cccs1)N1CCN(c2nc(-c3ccc(Cl)cc3)cs2)CC1,-2.3,x,0.3,-5.8,-2.1,i,13.1,x,
CC1(c2ccccc2)NC(=O)N(CC#N)C1=O (stereo unspecified),-5.7,-43.1,-0.5,0.9,-2.8,i,-0.1,x,
Cc1ccc(CNC(=O)CN(c2cccc([N+](=O)[O-])c2)S(C)(=O)=O)cc1,x,25.1,1.0,3.2,-7.5,i,5.4,x,
Cc1cccc(C)c1NC(=O)CCCSc1nnc(-c2ccco2)o1,-12.9,16.1,2.1,4.1,x,i,x,1.3,
O=C(NC(=S)Nc1ccc2c(c1)OCCO2)c1ccccc1,14.2,-234.9,3.0,2.2,0.2,i,-10.2,-42.4,
CC1(C(=O)NS(=O)(=O)c2ccccc2)CCN1C(=O)Cc1ccc(-c2ccccc2)cc1 (stereo unspecified),x,-0.7,-0.2,-1.0,x,x,x,4.7,
CN(C(=O)CSc1nc2ccccc2s1)c1c(N)n(Cc2ccccc2)c(=O)[nH]c1=O,1.2,-16.1,-5.3,-0.5,3.0,i,10.1,x,
O=[N+]([O-])c1ccccc1S(=O)(=O)Nc1ccc(-c2ccc3nncn3n2)cc1,11.8,5.1,-2.9,3.2,x,i,x,x,
COc1ccccc1Nc1nc(NCCO)c2ccccc2n1,x,x,x,x,-0.7,i,6.2,x,
O=C1NCCCN1C1OC(CO)C(O)C1O (stereo unspecified),x,-4.7,-0.8,1.8,x,x,x,-20.3,
COc1ccc(NC(=O)CCCOc2ccc(Cl)c(C)c2)cc1S(=O)(=O)N1CCOCC1,-7.1,58.9*,0.2,-18.8,x,x,x,3.8,
CC(C)c1cccc(C(C)C)c1NC(=O)COC(=O)C1=COCCO1,-17.1,-5.6,5.3,4.8,-0.4,i,-3.8,x,
CCCn1c(=O)c2ccccc2n2c(SCCOc3ccccc3F)nnc12,-10.7,-20.3,-1.6,-3.5,-1.8,i,6.0,-11.9,
CN(C)CCNC(=O)c1cc2cc(Br)ccc2oc1=O,-12.7,-9.5,1.5,-0.5,5.2,i,-1.1,7.3,
COc1ccc(Cc2nnc(NC(=O)c3ccc(OC)cc3OC)s2)cc1,3.7,-41.8,11.0,-3.5,4.9,i,-6.0,-15.3,
CS/C(=C\[N+](=O)[O-])Nc1ccc(C)cc1,25.3,-10.8,-1.3,5.7,-4.4,i,0.6,x,
CC1(C)Cc2c(c(N3CCOCC3)nc3sc4c(N5CCOCC5)nnnc4c23)CS1,-4.7,x,x,x,2.0,i,-0.9,x,
O=C(Nc1nc(N2C(=O)c3ccccc3C2=O)n(-c2ccccc2)n1)c1ccccc1,-5.4,4.9,4.4,6.8,-7.8,i,-2.5,x,
O=C(Nc1ccc(Cl)cc1)c1cccc(NC2=NC3CS(=O)(=O)CC3S2)c1 (stereo unspecified),x,10.1,0.4,-3.0,6.1,i,-3.6,-12.3,
CN(C)C(CNS(=O)(=O)c1ccc2ccccc2c1)c1ccccc1 (stereo unspecified),81.6*,26.6,-0.2,2.5,-9.2,i,3.0,-6.7,
Cc1c(NC(=O)C(C)OC(=O)CCOc2ccccc2)c(=O)n(-c2ccccc2)n1C (stereo unspecified),-4.6,0.2,-4.9,-3.1,x,i,x,-10.2,
CCOC(=O)c1ccc(NS(=O)(=O)c2cc(-c3nnnn3C(C)C)ccc2OC)cc1,10.3,x,4.7,-2.3,-3.5,i,-11.2,24.2,
CCOc1ccc(-c2nnn(CC(=O)N3CCN(c4ccc(OC)cc4)CC3)n2)cc1OCC,-15.6,x,-0.4,0.1,-9.0,i,-9.5,-9.8,
CCC(=O)N1C(C(=O)NCc2ccc(OC)cc2)CSC1c1ccc(OC)cc1 (stereo unspecified),6.9,-23.0,3.0,-0.8,8.6,i,2.1,-6.2,
O=C(CCc1nnc(-c2ccc(-c3ccccc3)cc2)o1)N1CCCCC1,-6.5,22.0,1.1,-1.0,0.0,i,-3.0,x,
OCC[C@@H]1C[C@H](O)[C@@H](O)[C@@]2(Cc3ccccc3CO2)O1,-2.1,9.1,2.4,4.1,3.9,i,-3.6,-16.7,

# (list continues)
SMILES,CSC inhib,Env fusion inh,MT1-MMP act inh,MT1-MMP act inh RFP,eIF4H FP inh,Rce1 inhib,PABP FP inh,Yeast UUG start,others
S=c1[nH]nc2sc3ccccc3n12,x,-6.7,-1.1,3.0,x,x,x,-28.7,
COc1ccc(C(=O)NCC(=O)OCC(=O)NC2CCCCCC2)cc1OC,-4.2,-3.8,2.2,3.2,x,x,x,-15.1,
C=CCn1c(COc2cccc3cccnc23)nnc1SCC(=O)O,-1.4,x,0.2,2.0,-7.0,i,-4.0,-2.2,
Cc1cc(C)nc(Nc2nc3ccccc3[nH]2)n1,-13.2,-61.1,1.0,-0.3,-3.6,i,6.4,-1.0,
S=c1[nH]nc(Cc2ccccc2)n1-c1cccc2ccccc12,-8.6,-5.2,-3.1,4.0,0.2,x,-6.9,x,
O=Cc1ccc(C(=O)OCC(=O)Nc2ccc(F)cc2F)cc1,2.8,3.2,-2.1,2.8,-13.0,i,7.6,-3.3,
CCOC(=O)C1=C(C)NC(=O)NC1c1ccc(Br)s1 (stereo unspecified),-6.3,-43.6,2.2,4.1,-1.7,i,-0.3,-6.9,
COC(=O)C1(C)NC(c2cccc(C)c2)C2C(=O)N(c3ccccc3)C(=O)C21 (stereo unspecified),x,-8.4,0.5,-1.2,x,x,x,-1.3,
Cc1oc(-c2ccc(Cl)cc2)nc1CN1CCCC(C(=O)N2CCOCC2)C1 (stereo unspecified),0.1,2.2,-1.0,-1.3,-6.1,i,4.6,-13.0,
COc1ccc(C(=O)/C=C/c2ccccc2OC)c(OC(=O)c2ccc([N+](=O)[O-])cc2)c1,3.5,-180.7,4.5,-8.5,x,i,x,-14.8,
O=C(CN1C(=O)C(c2ccc(F)cc2)=NC12CCCC2)Nc1ccc(F)cc1,3.5,32.3,4.3,-26.7,-7.4,i,8.2,3.5,
O=C(N/N=C/c1cccc(OC(=O)c2cccc(Br)c2)c1)c1ccncc1,-7.3,-4.2,4.1,6.9,-2.3,i,-1.6,-7.0,
O=C1C(=O)N(Cc2cccnc2)C(c2cccc(Br)c2)/C1=C(/O)c1ccc2c(c1)OCO2 (stereo unspecified),4.8,-2.2,-2.0,2.5,-1.5,i,-6.4,-17.0,
O=C(NC1CCN(Cc2ccccc2)CC1)C1CCN(S(=O)(=O)c2ccccc2)CC1,-2.3,10.0,1.2,-4.6,8.3,i,2.7,-4.2,
Cc1ccccc1CS(=O)(=O)Cc1ccc(C(=O)NCCCN2CCCC2=O)o1,-13.7,x,4.2,2.8,-4.2,i,4.3,x,
COc1ccc(Cl)cc1Cn1c(C)c(C(=O)NCc2ccccc2C(F)(F)F)sc1=O,x,-28.9,-10.4,-13.7,x,x,x,2.0,
CSc1nnnn1-c1cccc(O)c1,-14.2,-481.7,-2.6,0.4,-5.3,i,1.9,-8.8,

# Part of the list above in order of count of non-hydrogen atoms, ascending:
SMILES,CSC inhib,Env fusion inh,MT1-MMP act inh,MT1-MMP act inh RFP,eIF4H FP inh,Rce1 inhib,PABP FP inh,Yeast UUG start,others
O=C(CN1C(=O)C(c2ccc(F)cc2)=NC12CCCC2)Nc1ccc(F)cc1,3.5,32.3,4.3,-26.7,-7.4,i,8.2,3.5,
Cc1ccccc1CS(=O)(=O)Cc1ccc(C(=O)NCCCN2CCCC2=O)o1,-13.7,x,4.2,2.8,-4.2,i,4.3,x,
COc1ccc(Cl)cc1Cn1c(C)c(C(=O)NCc2ccccc2C(F)(F)F)sc1=O,x,-28.9,-10.4,-13.7,x,x,x,2.0,
